Assay outcomes (PubChem BioAssay)
RN4220 kill: kills Staphylococcus aureus RN4220. S. aureus RN4220 growth, OD600, 16 h. inhibition, % (concentration not given with the values). hit rate 0.33% among 330,000. AID 1259311;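 active means z-score of -3 or lower and OD600 up to 0.18 on both plates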;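 further: plate controls were untreated cells for no effect and reference antibiotic for full effect; stock transfer was 100 nL into about 80 µL; one replicate is shown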
Bead autofluor: compound fluorescence in toxin protease inhibitor counterscreen. compound autofluorescence counterscreen, microsphere flow cytometry; stronger effect = higher value. fluorescence intensity (concentration not given with the values). hit rate 3.1% among 360,000. AID 624483;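 active means at least 3 SD above the mean of all compounds, about 16000 in these data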;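 further: 100 nL of 1 mM stock went into each well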
BJeLR lethal: BJeLR cell viability loss. hit rate 0.17% among 300,000. inhibition, % (test concentration not listed). BJeLR (HRASV12) viability, CellTiter-Glo ATP luminescence, 48 h; reference of the scale not given here;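 active means replicate mean above 50%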;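 further: 50 nL library stock added to about 25 µL; numbers are from one replicate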
PrP 5UTR inh: suppresses PrP 5' UTR mRNA reporter expression | cell-based PrP 5' UTR mRNA reporter, plate reader | inhibition, % (concentration not given with the values) | hit rate 0.35% among 340,000 | AID 488862;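 active means every replicate at 50% or more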;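 further: 0 = median of the neutral control wells; tested in H4 reporter cells; numbers are from one replicate; inactives centre near -14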
Mtb hypoxia rep: inhibitors of hypoxia-regulated fluorescent reporter in Mycobacterium tuberculosis. M. tuberculosis hypoxia-regulated fluorescent reporter, fluorescence. fluorescence inhibition, % (no concentration beside the values). hit rate 0.1% among 300,000;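 active means 35 to 45% if threefold the growth effect, above 45% if 1.5-fold the growth effect; inactive means the rest, general growth blockers included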;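 further: wells of about 50 µL received 100 nL stock; 0% = vehicle wells and 100% = reference inhibitor wells; whole bacteria with a GFP reporter of the hypoxia response; strong numbers were not always called active; many hits fall short of the cut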
ugtP null kill: growth inhibition of S. aureus ugtP deletion strain | hit rate 0.54% among 330,000 | AID 1259309 | S. aureus RN4220 ugtP deletion, OD600 growth, 16 h; some inactives read as strong as hits | growth inhibition, % (no concentration beside the values);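 active means z-score under -3 and OD600 up to 0.15 on both plates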;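 further: plate controls were untreated wells for no effect and antibiotic for full effect; wells of about 80 µL received 100 nL stock; the first replicate is given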
Mtb hypoxia rep growth: also measured in Mtb hypoxia rep; calls as there; growth inhibition, %; measured here: M. tuberculosis growth (absorbance);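 0% = vehicle and 100% = reference antibiotic; read after six days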
Active calls of the source: *; nt = not tested or not shown.

Values run as follows: RN4220 kill	Bead autofluor	BJeLR lethal	PrP 5UTR inh	Mtb hypoxia rep	Mtb hypoxia rep growth	ugtP null kill
> CC(C)(C)c1cc(C(=O)NC2CC2)n(Cc2ccc(F)cc2)n1
  1.9	nt	2	0	2	0	7
> Cc1ccc(NC(=O)CSc2ccc(-c3ccc4c(c3)OCO4)nn2)cc1F
  -0.1	10640	-11	-27	12	9	17
> CCn1ncc(Cl)c1C(=O)Nc1cc(Cl)ccc1Cl
  7.2	22800*	-17	-17	5	16	-7
> Cc1nc2ncnn2c(N2CCN(S(=O)(=O)c3ccc(Br)cc3)CC2)c1C
  7.5	4596	6	-19	13	2	9
> CC(C)Cc1nc2oc3c(Cl)ncnc3c2c2c1CCCC2
  3.0	3985	-8	-2	7	2	1
> CC1CCCC(=NNC(=O)COc2ccccc2Cl)C1 (centres undefined)
  2.9	nt	nt	nt	10	5	6
> COc1cc(C=NNC(=O)c2ccccn2)ccc1OC(=O)c1ccccc1Br
  -2.0	nt	nt	nt	-11	-5	-13
> O=C(c1ccccc1-c1ccccc1)N1CCCC1
  11	3453	3	-3	4	3	4
> CC1CN(S(=O)(=O)c2cccc(C(=O)N=c3sccn3C)c2)CC(C)O1 (centres undefined)
  3.8	4182	3	-20	-7	-9	-2
> CC1CC(C)CN(C(=S)Nc2ccc(OC(F)F)cc2)C1 (centres undefined)
  2.4	2407	-13	-22	10	4	8
> C=CCN(Cc1nc(-c2ccccc2)no1)C(=O)c1ccc2c(c1)OCO2
  -0.1	3506	10	-24	8	8	8
> O=C(/C=C/Nc1ccc(Oc2ccccc2Cl)cc1)c1ccco1
  -3.8	4925	3	-60	7	1	1
> O=[N+]([O-])c1cc(S(=O)(=O)N2CCCC2)ccc1NN=Cc1cccnc1
  -0.9	nt	nt	nt	-2	1	-1
> CCOC(=O)c1ccc(NC(=O)NCc2ccncc2)cc1
  1.7	3649	7	-28	10	19	-3
> COc1ccc(OC)c(S(=O)(=O)N(C)CC(=O)Nc2cc(Cl)ccc2OC)c1
  -0.8	2665	-1	-7	nt	nt	2
> CSc1ccc(C(=O)NCC(c2ccco2)N(C)C)cc1[N+](=O)[O-] (centres undefined)
  -2.3	6053	-6	-25	4	7	-3
> C=CCNC(=O)c1oc2ccc(S(=O)(=O)N3CCC4(CC3)OCCO4)cc2c1C
  -1.4	5534	5	-9	4	2	7
> COc1cc(/C=N/NC(=O)c2cccnc2)ccc1OC(=O)c1cc(OC)c(OC)c(OC)c1
  nt	5174	-5	-7	nt	nt	nt
> C/C(=N\Nc1ncc(Cl)cc1Cl)c1ccc(C#N)cc1
  nt	3673	9	-51	nt	nt	nt
> CCCCn1nnc(NC(=O)c2sc3cc(Cl)ccc3c2Cl)n1
  3.1	2416	-4	-16	-1	4	-5
> COc1ccc(Cl)cc1NC(=O)CN(C)C(=O)CN1C(=O)NC(C)(C)C1=O
  1.8	3415	nt	-14	0	-3	4
> O=C(Cc1ccc(F)cc1)Nc1ccc(S(=O)(=O)N2CCCC2)cc1
  3.4	6178	-2	-18	4	11	6
> COc1cc(/C=C/C(=O)N2CCCN(C(=O)/C=C/c3cc(OC)c(OC)c(OC)c3)CC2)cc(OC)c1OC
  nt	2663	-1	-3	nt	nt	nt
> Cc1cc(N2CCN(C)CC2)n2cc(-c3ccc(F)cc3)nc2n1
  -1.1	nt	-3	-20	3	0	6
> Cc1ccc(OCC(=O)N/N=C\c2ccc(O)cc2)c([N+](=O)[O-])c1
  nt	2629	-7	-13	nt	nt	nt
> COc1ccc(NC(=O)CSc2ccc(-c3cccs3)nn2)c(OC)c1
  6.9	3222	-18	-5	-10	11	2
> O=C(Nc1cccc([N+](=O)[O-])c1)c1ccc(CSc2ccccc2)cc1
  0.8	9945	-3	-14	-7	-3	-9
> Cc1ccccc1NC(=O)COC(=O)CCc1c[nH]c2ccccc12
  0.0	6408	nt	-4	23	14	-1
> Cc1cccc(NC(=O)Cn2cc(C(=O)c3ccco3)c3ccccc32)c1
  11	2298	0	-26	-1	9	-8
> C/C(=N/NC(=O)c1ccncc1)C1=C(O)CC(C)(C)CC1=O
  nt	4371	-5	-24	nt	nt	nt

Three structures out of the list, sorted by number of heavy atoms, ascending:
Values run as follows: RN4220 kill	Bead autofluor	BJeLR lethal	PrP 5UTR inh	Mtb hypoxia rep	Mtb hypoxia rep growth	ugtP null kill
> O=C(Cc1ccc(F)cc1)Nc1ccc(S(=O)(=O)N2CCCC2)cc1
  3.4	6178	-2	-18	4	11	6
> O=C(Nc1cccc([N+](=O)[O-])c1)c1ccc(CSc2ccccc2)cc1
  0.8	9945	-3	-14	-7	-3	-9
> Cc1cccc(NC(=O)Cn2cc(C(=O)c3ccco3)c3ccccc32)c1
  11	2298	0	-26	-1	9	-8

Carrying on:
Values run as follows: RN4220 kill	Bead autofluor	BJeLR lethal	PrP 5UTR inh	Mtb hypoxia rep	Mtb hypoxia rep growth	ugtP null kill
> O=C1OCC(CO)(CO)N=C1NNc1ccc(Cl)c(Cl)c1
  0.3	12666	8	-4	-8	-3	2
> OC1(c2cccs2)CN(c2ccc(Cl)cc2)C2=[N+]1CCCC2 (centres undefined)
  0.6	4407	-2	-13	0	1	-2
> CCC(C)C(=O)Nc1ccc(S(=O)(=O)N2CCCC2)cc1 (centres undefined)
  -1.4	3832	-4	-19	-16	-10	-4
> CCOc1ccc(NC(=O)CSc2nnc(C)n2CC)cc1
  2.1	4032	1	-25	7	13	8
> Cc1cc(C)cc(NC(=O)CN2C(=O)COc3ccc(S(=O)(=O)N4CCCC4)cc32)c1
  0.1	5166	-6	-33	1	-1	4
> COc1ccc(OC)c(NC(=O)CN2C(=O)C(=O)N(Cc3ccccc3)C2=O)c1
  4.7	3632	nt	-12	9	4	8
> Cc1nn(Cc2ccccc2)c(C)c1C(=O)OCC(=O)Nc1cc(S(C)(=O)=O)ccc1Cl
  11	3239	5	-20	17	8	2
> O=C(N/N=C/c1ccc(OC(F)F)cc1OC(F)F)NC1CCCCC1
  nt	4611	-3	-21	nt	nt	nt
> COCCNC(=O)C(c1cccnc1)N(Cc1ccc(C)cc1)C(=O)Cn1nnc2ccccc21 (centres undefined)
  5.5	4042	2	-2	6	-12	16
> CCc1cccc(C)c1NC(=O)CCN1C(=O)NC(C)(C)C1=O
  3.9	6050	nt	-19	-2	-2	7
> O=C(c1cc2c([nH]c1=O)CCCC2)N1CCc2c([nH]c3ccccc23)C1c1ccccc1F (centres undefined)
  1.7	3951	-3	-14	-21	3	10
> COc1ccc(Cn2nnnc2C(c2cc3cc(C)ccc3[nH]c2=O)N2CCN(C)CC2)cc1 (centres undefined)
  0.7	3516	-1	-11	9	15	6
> Cc1c(C)c2ccc(OCC(=O)NCCCN3CCCC3=O)cc2oc1=O
  -1.3	5841	-5	-17	10	-1	7
> CCN(CC)S(=O)(=O)c1cc(C(=O)c2nccn2C)ccc1Cl
  7.0	3217	1	-24	-10	-9	9
> O=C(CSc1nc2ccccc2c2nc3ccccc3n12)NCc1ccco1
  4.2	4094	0	-7	2	0	6
> COc1ccc(NC(=O)c2cc(-c3cc(OC)c(OC)c(OC)c3)nc3ccccc23)c(OC)c1
  -1.7	4330	1	-6	-4	-5	-15
> O=C([C@H](Cc1ccc(O)cc1)n1cc(CCO)nn1)N1CCNCC1
  nt	3794	-11	-27	nt	nt	nt
> CON=CCC(=O)c1cnc(-c2ccccc2)s1
  2.2	nt	nt	nt	19	8	8
> CCCNC(=O)CCc1nnc2ccc(N3CCC(C)CC3)nn12
  2.9	3367	1	-4	14	5	9
> CCOC(=O)c1c(NC(=O)c2cccs2)sc(C(=O)N2CCOCC2)c1C
  6.2	4602	-11	-12	11	7	0
> O=C(Nc1nc2ccccc2[nH]1)C1CCCC1
  4.8	3375	17	-74	8	-3	3
> CC(C)(C)SCCNC(=O)/C=C/c1cccc([N+](=O)[O-])c1
  5.2	2442	4	-18	4	8	0
> c1ccc(Cn2ccnc2SCc2nnc(-c3ccccc3)o2)cc1
  4.6	8322	-13	-17	13	5	-1
> O=C(CSc1nnnn1Cc1ccccc1)NCC(=O)c1ccccc1
  2.3	9150	-2	-2	6	11	-4
> NC(=S)NNC(=O)[C@@H]1CCCC[C@@H]1C(=O)O
  2.9	2219	-6	-22	10	4	15
> CN(Cc1nc2ccc(F)cc2[nH]1)Cc1c(C(=O)N(C)C)nc2ccc(Cl)cn12
  -0.1	2284	1	-16	7	1	0
> COc1cc(O)c(C(CCN2CCN(c3ccccc3)CC2)c2ccc(N(C)C)cc2)c(OC)c1 (centres undefined)
  5.1	4177	2	-10	-1	5	5
> CCOc1ccc(Cn2c(=O)oc3ccccc32)cc1
  5.8	3298	-4	-31	16	27	9
> O=C(C(Cl)c1ccccc1)N1CCCC1 (centres undefined)
  4.1	4484	-4	0	-2	-3	13
> O=C(NCCN1CCOCC1)c1ccccc1Cl
  6.1	3319	12	-15	-8	10	6
> O=C(NCCC1=CCCCC1)C1CCCN(S(=O)(=O)c2cccc3cccnc23)C1 (centres undefined)
  -1.6	6056	-2	13	nt	nt	7
> CCOC(=O)C(Cc1ccccc1)NC(=O)Cn1nnc(-c2ccccc2)n1 (centres undefined)
  -0.1	20857*	6	-14	0	-6	2
> CCCCOCCCNC1=NCCCCC1
  0.1	4812	-7	-9	-5	-25	2
> CC1=CC(C)(C)N(C(=O)CSc2nnc(C)s2)c2ccc(C)cc21
  5.7	10646	13	-12	5	12	-3
> COc1ccc(N=c2oc3cc(O)ccc3cc2C(=O)NCC2CCCO2)cc1 (centres undefined)
  5.0	21984*	-3	-8	5	5	-7
> CCN(CC)S(=O)(=O)c1ccc(C(=O)Nc2ccc(C(F)(F)F)n(C)c2=O)cc1
  -1.8	3759	6	-16	-4	-1	10
> COc1ccc(CNC(=O)[C@@H]2CC=C[C@@H]3CCN(C4CC4)C(=O)[C@@H]32)cc1
  nt	3560	2	-5	nt	nt	nt
> O=C(Cc1ccccc1)NC1(O)C(=O)c2ccccc2C1=O
  nt	3689	-2	-109	nt	nt	nt
> COc1cccc(/C=C2/Sc3ccc(C(=O)NCCN4CCCC4)cc3NC2=O)c1
  -3.2	5066	14	17	21	15	9
> O=C(NCC(c1ccco1)N1CCOCC1)c1cccc([N+](=O)[O-])c1 (centres undefined)
  3.6	4294	11	-12	2	14	11
> OC(CN1CCN(c2ccccn2)CC1)Cn1c2ccc(Cl)cc2c2cc(Cl)ccc21 (centres undefined)
  11	3518	8	-9	nt	nt	-19
> CN1c2ccc([N+](=O)[O-])cc2CC2(C(=O)NC(=O)NC2=O)C1c1ccccc1 (centres undefined)
  -0.3	2001	-9	-16	3	2	5
> COc1ccccc1C(=O)NNC(=O)c1ccc(Br)o1
  2.2	5612	-8	-21	0	8	-2
> COc1ccc(-c2ccc(OC)c([C@H]3[C@@H]4C=CCC[C@@]4(C)C(=O)N3Cc3ccccc3)c2)cc1OC
  nt	4065	-6	-7	nt	nt	nt
> Nn1c(Nc2ccc(Cl)cc2)nncc1=O
  2.2	4372	-19	-27	9	14	9
> COc1cc(/C=N/NC(=O)/C(=C\c2ccc3c(c2)OCO3)NC(=O)c2ccccc2)ccc1O
  nt	2462	10	-22	nt	nt	nt
> CCN(CC)S(=O)(=O)c1ccc(Cl)nc1
  2.5	4412	-15	-9	-1	3	2
> COc1ccc(C(=O)N2CCN(C3CCN(Cc4ccccc4)CC3)CC2)cc1OC
  -8.8	2451	1	6	0	9	-3
> CSc1ccccc1C(=O)OCC(=O)N1CCCC1=O
  7.0	3675	nt	-19	13	-2	13
> COc1ccc2c(c1)SC1=NCCS(=O)(=O)N12
  4.1	11111	-3	-35	6	1	4
> COc1ccc(NC(=O)C2CCCN2C(=O)Oc2ccccc2)cc1 (centres undefined)
  1.9	3972	-8	-25	2	3	6
> COc1ccc(-c2cn[nH]c2C)cc1
  3.5	nt	0	-8	-7	-2	9
> O=C(NN=Cc1cc(Br)ccc1O)c1ccc(S(=O)(=O)N2CCCCC2)cc1
  7.8	nt	nt	nt	0	4	8
> CC(=O)Nc1cccc(C(=O)OC2CCOC2=O)c1 (centres undefined)
  1.5	5941	12	-11	0	-1	6
> CN(C)S(=O)(=O)c1ccc(C(=O)N2CCN=C2SCc2ccccc2)cc1
  -0.8	2480	4	0	7	1	3
